# Assay outcomes as filed in PubChem BioAssay.
# MLL AF4-AF9 inh: MLL-AF4/AF9 protein interaction inhibition | inhibition, % at 10 µM | actives 0.47% (n = 350,000) | AlphaScreen, biotin-AF4 peptide binding to FLAG-AF9 | P42568;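 active = every replicate reaching a set inhibition limit, whatever the replicate mean, cut at about 25% in these data; inconclusive = mean inhibition reaches that limit but some replicates miss it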;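 also: 0% = plate neutral control median and 100% = total signal loss; the record names both 10 and 1 µM as test concentration; the first replicate is given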
# Target sequence (P42568 whole entry, looked up): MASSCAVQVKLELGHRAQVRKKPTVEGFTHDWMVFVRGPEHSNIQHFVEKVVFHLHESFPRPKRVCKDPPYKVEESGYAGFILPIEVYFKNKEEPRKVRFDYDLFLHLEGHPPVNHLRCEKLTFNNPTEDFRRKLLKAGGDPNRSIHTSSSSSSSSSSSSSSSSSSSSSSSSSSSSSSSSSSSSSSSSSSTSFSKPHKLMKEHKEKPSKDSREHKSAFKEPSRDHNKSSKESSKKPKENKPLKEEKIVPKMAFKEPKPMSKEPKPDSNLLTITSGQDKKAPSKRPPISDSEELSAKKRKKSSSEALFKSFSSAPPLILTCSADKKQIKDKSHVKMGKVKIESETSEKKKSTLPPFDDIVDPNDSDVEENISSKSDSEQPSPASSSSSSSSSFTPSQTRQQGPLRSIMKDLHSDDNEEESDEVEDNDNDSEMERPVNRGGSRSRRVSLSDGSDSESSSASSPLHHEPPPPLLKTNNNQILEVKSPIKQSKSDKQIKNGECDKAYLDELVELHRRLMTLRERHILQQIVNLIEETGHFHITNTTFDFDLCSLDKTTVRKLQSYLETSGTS
# T cruzi repl: blocks replication of Trypanosoma cruzi. T. cruzi beta-gal in NIH3T3, luminescence, 90 h. inhibition, % (concentration not given with the values). actives 1.4% (n = 300,000). AID 1885;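 active = mean inhibition across valid replicates above about 55%, limit read from the data; inconclusive = mean below that limit but half or more replicates reach it; inactive = mean below it, under half of replicates reach it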;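 also: signal also drops with host cell toxicity which is not excluded here; 0% = plate median of DMSO wells and 100% = zero luminescence signal; higher percent means less beta-gal luminescence so fewer parasites; stock transfer was 50 nL into about 50 µL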
# ALR H2O2 inh: inhibitors of human sulfhydryl oxidase ALR; purified ALR, DTT oxidation, H2O2 HRP-luminol luminescence; actives 3.8% (n = 290,000); inhibition, % (no concentration beside the values); AID 485317; P55789;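 active = mean and each replicate at 75% or more; inconclusive = only one of the two met; inactive = neither met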;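 also: stock transfer was 7.5 nL into about 7.5 µL; 0% = neutral wells and 100% = wells with inactivated enzyme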
# Target sequence (P55789 whole entry, looked up): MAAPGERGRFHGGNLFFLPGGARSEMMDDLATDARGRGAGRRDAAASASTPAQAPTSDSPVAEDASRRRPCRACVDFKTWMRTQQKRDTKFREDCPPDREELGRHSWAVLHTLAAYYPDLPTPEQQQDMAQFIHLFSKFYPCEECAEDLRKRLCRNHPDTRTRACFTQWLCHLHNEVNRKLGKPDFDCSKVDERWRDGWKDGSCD
# FGF22 binding: binders of recombinant human FGF22 by thermal shift; Q9HCT0; SYPRO orange fluorescence; percent of sucrose octasulfate shift, DMSO zero; calls only at 9.99 µM; actives 1.5% (n = 340,000);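 active = melting point raised past a set limit in the mean and every replicate; inconclusive = no clear call; three in four hits are not shown here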
# Target sequence (Q9HCT0 whole entry, looked up): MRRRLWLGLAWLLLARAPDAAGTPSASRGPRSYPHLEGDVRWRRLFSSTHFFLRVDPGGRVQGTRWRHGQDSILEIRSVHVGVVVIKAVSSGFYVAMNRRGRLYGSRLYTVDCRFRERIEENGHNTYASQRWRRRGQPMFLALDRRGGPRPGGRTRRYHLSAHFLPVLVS
# Beta cell apopt: beta cell apoptosis inhibition. INS-1E cytokine-induced death, ATP luminescence, 48 h; percent of positive-control rescue, neutral wells zero. protection from apoptosis, % (no concentration beside the values). actives 0.8% (n = 300,000). AID 435005;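 active = all replicates at 75% or more, or half of them and the mean; inconclusive = half reach 75% but not the mean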;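 also: 0% = cytokine-treated negative control wells and 100% = positive control rescue; higher means more ATP so stronger rescue from cytokine killing; wells of about 40 µL received 100 nL stock; the first replicate is given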
# RanGTP-Imp inh: inhibitors of RanGTP-importin-beta interaction, primary screen, biochemical, FRET, CFP-Ran, YFP-importin-beta, homogeneous; cell-free CFP-Ran/YFP-importin-beta FRET ratio; AID 2216; inhibition, % (no concentration beside the values); actives 1.1% (n = 300,000);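 active = most replicates above 15%; inconclusive = exactly half above 15%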;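 also: 0% = DMSO wells and 100% = Ran loaded with GDP instead of GTP; wells of about 40 µL received 100 nL stock; the first replicate is given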
# Ecoli rRNA inh: selective bacterial rRNA inhibition in E. coli; E. coli WT GFP vs humanized-ribosome RFP mutants, fluorescence, 24 h; active compounds read low; DMSO median 0, no signal -100; GFP signal change (wild-type ribosome), % (test concentration not listed); actives 1.6% (n = 350,000);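 active = significant combined selectivity score with lowered wild-type GFP, culture density cut under 30%, mutant RFP and density less affected; inactive = any of these conditions unmet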; also: one replicate is shown; some compounds called inactive have numbers as strong as hits
# Calb FLC: affects C. albicans growth with fluconazole; C. albicans CaCi-2 (fluconazole-resistant clinical isolate) + fluconazole, Alamar Blue growth, 48 h; growth inhibition, % (concentration not given with the values); actives 0.57% (n = 300,000);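 active = most replicates above 75%; inconclusive = exactly half above 75%; inactive = most below 75%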;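 also: all wells also contain fluconazole at 8 µg/ml as a sub-toxic cotreatment; 0% = median of DMSO wells and 100% = median of geldanamycin control wells; wells of about 8 µL received 7.5 nL stock; the first replicate is given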
# Ecoli rRNA inh OD600: recorded beside Ecoli rRNA inh, whose call it bears; OD600 change, %; measured here: OD600 growth;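 optical density of the mix in the first replicate; 0 = DMSO median and -100 = no signal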
# Ecoli rRNA inh RFP: second read-out of Ecoli rRNA inh, no call of its own (marks repeat the call); RFP signal change, %; measured here: RFP humanized mutant strains;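 first replicate; 0 = DMSO median and -100 = no signal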
# Numbers without * were called inactive; i = inactive; ? = inconclusive; / = not tested or not shown; + = active, no number.
SMILES,MLL AF4-AF9 inh,T cruzi repl,ALR H2O2 inh,FGF22 binding,Beta cell apopt,RanGTP-Imp inh,Ecoli rRNA inh,Ecoli rRNA inh OD600,Ecoli rRNA inh RFP,Calb FLC
COc1ccccc1C1CC(=O)Nc2c1c(=O)n(C)c(=O)n2C (centres undefined),-8.8,3,-3,i,-2,3.3,4,9,2.9,3
COc1ccccc1N1C(=S)NC2CS(=O)(=O)CC21 (centres undefined),-1.3,-5,-4,i,-1,1.3,1,7,-2.1,-1
Cc1ccc(S(=O)(=O)Nc2nnc(C3CCCCC3)s2)cc1,-0.7,10,10,i,-11,-3.3,1,-5,-2.2,28
COc1cccc(CN(C(=O)COc2ccc(C)cc2)C2CCS(=O)(=O)C2)c1 (centres undefined),-0.5,11,2,i,-4,2.0,-1,-4,-0.8,-1
CC1CCCC(N2CCN(C(=O)c3ccc(F)cc3)CC2)C1 (centres undefined),4.8,7,-2,i,-8,?,6,6,-0.5,-7
O=C(O)C1C2CCC(O2)C1C(=O)NCc1ccccc1Br (centres undefined),-2.1,-6,-4,i,-12,0.0,4,-3,-1.8,2
CC(C)(C)C(=O)NC1(C(F)(F)F)NC(=O)N(CCc2ccccc2)C1=O (centres undefined),0.0,-2,-3,i,0,-1.8,5,9,-1.1,-10
CC(C)(C)c1ccc(C(=O)N2CCNCC2)cc1,/,13,-5,/,3,0.6,/,/,/,18
O=C(COC(=O)c1ccccc1OCc1ccc(F)cc1)NCC1CCCO1 (centres undefined),-1.7,/,-1,i,-1,/,0,0,0.8,/
NC(=O)C1CCN(c2nc3c(S(=O)(=O)c4ccccc4)nnn3c3ccccc23)CC1,-2.3,-4,-3,i,-1,-2.0,-9,-17,3.9,-1
CC1=NCCN1CCNC(=O)Nc1cc(C)cc(C)c1,0.8,-6,-6,i,-2,-0.4,17,10,2.0,-3
CC1CCN(c2nc(NCc3ccco3)nc(N)c2[N+](=O)[O-])CC1,/,-10,2,/,2,1.2,/,/,/,0
Cc1ccc(C)c(NC(=O)Cc2coc3cc4c(cc23)CCC4)c1,/,14,0,/,-2,?,/,/,/,1
CC1(C(=O)NCc2ccc(Cl)c(Cl)c2)Oc2ccccc2NC1=O (centres undefined),-20,-10,/,i,-1,-4.3,-24,-20,2.8,2
CCOc1ccc(N2CC(C(=O)Nc3nnc(Cc4ccc(OC)cc4)s3)CC2=O)cc1 (centres undefined),0.0,-4,-1,i,-5,0.7,3,8,-1.8,-6
Clc1ccccc1CSc1cc2c(nn1)-c1ccccc1CC2,/,29,-19,/,9,0.5,/,/,/,4
CCOC(=O)c1nn(-c2ccc(F)cc2)c2c1CC/C2=C/c1ccccc1,0.5,3,-2,i,-7,-2.1,4,8,-0.6,0
CCN(C(=O)COC(=O)c1n[nH]c2ccccc12)C1CCS(=O)(=O)C1 (centres undefined),5.6,-21,2,i,-8,?,11,8,0.4,-14
CCC(=O)N(Cc1ccco1)c1nc(C(=O)Nc2ccc(Cl)cc2)c(C)s1,-2.4,-11,3,i,1,-1.9,-14,-13,2.3,7
CC(C)N1CCN(Cc2cccc(-c3ccco3)c2)CC1CCO (centres undefined),7.9,42,-5,i,-1,0.6,16,3,6.1,-15
Cc1ccc(NS(=O)(=O)c2ccc3c(c2)n(C)c(=O)n3C)cc1C,-0.9,1,-2,i,-1,0.4,5,8,0.6,-9
Cn1nnnc1SCCNC(=O)C1CCC(=O)N(CCc2cccc(F)c2)C1 (centres undefined),-3.7,5,5,i,1,2.1,0,0,-1.7,-13
COC(=O)COc1cccc(/C=N/NC(=O)CCSc2ccccc2)c1,-1.2,-4,-6,i,-1,-1.1,-1,-6,2.2,2
O=C(Nc1ccc(N=Nc2ccccc2)cc1)c1ccc(Cl)cc1Cl,/,1,-3,/,-9,2.9,/,/,/,8
C=CCN1C(=O)C(Cc2ccc(OCC)cc2)SC1=Nc1ccc(C(=O)O)cc1 (centres undefined),/,-7,2,/,2,-1.1,/,/,/,2
COC(=O)C1CCCCN1C(=O)c1ccc2oc(C(C)C)nc2c1 (centres undefined),-0.4,-1,1,i,-1,1.0,3,4,0.2,-2
O=C(CSc1nnc(Cn2c(=O)sc3ccccc32)n1-c1ccccc1)Nc1nccs1,1.1,9,-9,i,0,8.5,-1,-6,0.2,3
O=C(O)CSc1nnc(-c2ccncc2)n1-c1ccc(Cl)cc1,/,-10,-18,/,/,0.3,/,/,/,4
Fc1ccccc1Nc1nc(-c2ccncc2)nc2ccccc12,-0.7,55*,-8,i,-5,/,20,20,5.9,-4
CC1(C)CC2CC(C)(CN2C(=O)Cc2ccccc2)C1 (centres undefined),/,15,-2,/,0,0.5,/,/,/,10

# Five compounds already listed, arranged by molecular weight, lowest first.
SMILES,MLL AF4-AF9 inh,T cruzi repl,ALR H2O2 inh,FGF22 binding,Beta cell apopt,RanGTP-Imp inh,Ecoli rRNA inh,Ecoli rRNA inh OD600,Ecoli rRNA inh RFP,Calb FLC
CC1(C(=O)NCc2ccc(Cl)c(Cl)c2)Oc2ccccc2NC1=O (centres undefined),-20,-10,/,i,-1,-4.3,-24,-20,2.8,2
O=C(Nc1ccc(N=Nc2ccccc2)cc1)c1ccc(Cl)cc1Cl,/,1,-3,/,-9,2.9,/,/,/,8
CC(C)(C)C(=O)NC1(C(F)(F)F)NC(=O)N(CCc2ccccc2)C1=O (centres undefined),0.0,-2,-3,i,0,-1.8,5,9,-1.1,-10
O=C(COC(=O)c1ccccc1OCc1ccc(F)cc1)NCC1CCCO1 (centres undefined),-1.7,/,-1,i,-1,/,0,0,0.8,/
COc1cccc(CN(C(=O)COc2ccc(C)cc2)C2CCS(=O)(=O)C2)c1 (centres undefined),-0.5,11,2,i,-4,2.0,-1,-4,-0.8,-1

# Following part:
SMILES,MLL AF4-AF9 inh,T cruzi repl,ALR H2O2 inh,FGF22 binding,Beta cell apopt,RanGTP-Imp inh,Ecoli rRNA inh,Ecoli rRNA inh OD600,Ecoli rRNA inh RFP,Calb FLC
Cc1ccc(N=CC2=C(O)CC(C)(C)CC2=O)nc1,/,-17,-4,/,-10,9.5,/,/,/,8
O=C(NNC(=S)NC(=O)c1ccccc1[N+](=O)[O-])c1ccc(Cl)cc1Cl,0.6,-4,31,i,8,?,-29,-34,-6.5,62
O=C(NNc1c(Cl)cc(Cl)cc1Cl)c1cccc([N+](=O)[O-])c1,/,13,93*,/,113*,3.4,/,/,/,-5
CCN(CC)CCCNC(=O)CSc1nc2c(c(C(F)(F)F)n1)CCc1ccccc1-2,-1.3,26,-4,i,3,1.2,-6,-5,4.2,-13
COC(=O)c1ccc(CSc2ccc3nnc(-c4ccc(OC)cc4)n3n2)o1,/,21,4,/,-4,-1.1,/,/,/,-7
Brc1ccc2nc(N3CCCC3)sc2c1,-1.3,1,50,i,-4,?,-2,2,-0.1,-2
CCC1CCCCN1CCCNC(=O)c1ccc2c(c1)NC(=O)CS2 (centres undefined),7.9,1,/,i,-1,-0.7,19,9,1.3,-8
COc1ccc([N+](=O)[O-])cc1NCc1ccco1,7.5,7,8,i,-7,-5.1,4,2,-3.3,0
COc1ccc(NC(=O)CSc2nc(O)cc(=O)n2C)cc1,/,3,99*,/,-4,-3.0,/,/,/,-9
Cn1cccc1CC(=O)N/N=C/c1cccc([N+](=O)[O-])c1,3.4,-3,43,i,3,3.6,3,6,1.5,1
COc1cc(/C=N/NC(=O)c2ccc3c(c2)OCO3)ccc1O,-2.5,6,99*,i,-1,7.8,9,9,1.1,25
CSc1nnnn1-c1c(C)cccc1C,2.6,-2,-4,i,7,5.5,14,13,0.4,8
C=CCC(=O)OCCCCCCOc1ccc(C(=O)O)cc1,/,4,-3,/,/,4.1,/,/,/,?
COCCn1nnnc1C(c1cc2ccc(OC)cc2[nH]c1=O)N1CCN(C2CCCCC2)CC1 (centres undefined),/,-24,0,/,-8,8.2,/,/,/,11
O=C(Nc1cccnc1)c1sc(Nc2ccccc2F)nc1-c1ccccc1,-6.7,2,0,i,15,-0.8,4,9,0.5,2
CCN(CC)S(=O)(=O)c1cccc(C(=O)N[C@H](C(=O)OCC(N)=O)C(C)C)c1,/,-6,0,/,-1,-1.1,/,/,/,-4
O=[N+]([O-])c1cc([N+](=O)[O-])c(Oc2c(Cl)cccc2Cl)cc1NN1CCCCC1,-2.4,-10,/,i,17,-4.6,-6,0,-10,-6
CC(C)NC(=O)C1CCN(C2CCN(Cc3nc(C(C)C)cs3)CC2)CC1,-1.0,-8,-6,i,-5,3.5,20,15,2.2,3
COc1ccc(N2CCN(C(=O)c3cccn4c(=O)c5ccccc5nc34)CC2)cc1,-2.0,-2,-43,i,-7,-3.6,13,13,-11,18
O=C1N[C@@H](Cc2ccccc2)COC(=O)[C@H](Cc2ccc(F)cc2)CC/C=C/C[C@@H]1CC(=O)N(CCO)Cc1ccccc1,-21,/,3,i,-4,/,3,2,-5.2,/
COCCNC(=O)c1ccc(CSc2nc3ccccc3s2)cc1,-0.5,14,99*,i,2,5.1,-5,-25,-1.3,3
COc1cc(C)ccc1NC(=O)Cc1csc(NC(=O)Nc2ccccc2OC)n1,0.1,5,0,+,-1,2.2,-24,-54,26,-2
COc1ccccc1N1CCN(C(c2cc3cc(C)ccc3[nH]c2=O)c2nnnn2C2CCCC2)CC1 (centres undefined),/,-2,/,/,-3,6.0,/,/,/,-5
O=C(NCc1ccco1)c1ccccc1F,/,-3,58,/,-2,-1.3,/,/,/,-12
CCOc1ccc(-n2c(SCC(=O)Nc3ccc(OC)cc3)nc3c(c2=O)SCC3)cc1,/,5,/,/,-9,3.2,/,/,/,12
COC(=O)c1cccc(C23CC4(C2)[C@H](CN(Cc2cccnc2)[C@@H]4c2ccccc2)C3c2ccccc2)c1 (some centres undefined),5.7,29,/,i,0,0.0,-2,-2,-4.3,-6
O=C(OCC(=O)N1CCOCC1)c1ccc2c(c1)OCCO2,/,-2,-4,/,0,?,0,9,2.5,3
COC(=O)C1C(=O)c2c([nH]c(C(=O)OC3CCCCCC3)c2C)CC1C (centres undefined),-0.4,-3,-13,i,9,-1.4,-1,-3,0.2,8
CSc1ccc(C(=O)C2CCCN(C(=O)c3cc(C)n(C)n3)C2)cc1 (centres undefined),-0.6,16,-1,i,-5,1.5,-3,-10,-0.7,7
CC(=O)C1=C(c2ccccc2)OC(N)=C(C#N)C1c1ccccc1F (centres undefined),1.2,-6,?,i,-5,2.0,-47*,-36*,-10.0*,11
O=C(Cn1ncc2c(=O)oc3ccccc3c21)NCCN1CCN(c2ccccc2F)CC1,8.0,13,-19,i,3,?,4,10,-1.4,-7
CN(Cc1ccccc1)S(=O)(=O)c1nnc(NC(=O)c2ccc(F)cc2)s1,1.1,-15,1,i,14,4.8,3,11,0.5,-1
CCC(C)NC(=O)CN1C(=O)C(CC)Sc2ccccc21 (centres undefined),2.3,-5,4,i,-2,-3.0,3,4,-1.1,-2
C=CCNC(=O)CN(c1ccc(F)c(Cl)c1)S(C)(=O)=O,-2.4,14,3,i,1,-3.5,4,10,-1.1,-4

# Only part of the results is shown (hit frequency here may not be typical).
